Bioassay records (PubChem BioAssay)
E coli growth = blocks Escherichia coli growth. OD600 absorbance (concentration not given with the values). OD600, 23 h; stronger effect = lower value. 330,000 tested, 0.21% active;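 active means OD600 absorbance below the run mean of sample wells minus 3.6 SD, in any replicate, cut at about 0.56 in these data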;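 further: stock transfer was 300 nL into about 60 µL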
MLL AF4-AF9 inh = inhibitors of human MLL-AF4/AF9 interaction | P42568 | AlphaScreen, biotin-AF4 peptide binding to FLAG-AF9 | inhibition, % at 10 µM | 350,000 tested, 0.47% active | AID 651704;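 active means every replicate reaching a set inhibition limit, whatever the replicate mean, cut at about 25% in these data; inconclusive means mean inhibition reaches that limit but some replicates miss it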;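 further: 0% = plate neutral control median and 100% = total signal loss; the record names both 10 and 1 µM as test concentration; the first replicate is given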
Target sequence (P42568 whole entry, looked up): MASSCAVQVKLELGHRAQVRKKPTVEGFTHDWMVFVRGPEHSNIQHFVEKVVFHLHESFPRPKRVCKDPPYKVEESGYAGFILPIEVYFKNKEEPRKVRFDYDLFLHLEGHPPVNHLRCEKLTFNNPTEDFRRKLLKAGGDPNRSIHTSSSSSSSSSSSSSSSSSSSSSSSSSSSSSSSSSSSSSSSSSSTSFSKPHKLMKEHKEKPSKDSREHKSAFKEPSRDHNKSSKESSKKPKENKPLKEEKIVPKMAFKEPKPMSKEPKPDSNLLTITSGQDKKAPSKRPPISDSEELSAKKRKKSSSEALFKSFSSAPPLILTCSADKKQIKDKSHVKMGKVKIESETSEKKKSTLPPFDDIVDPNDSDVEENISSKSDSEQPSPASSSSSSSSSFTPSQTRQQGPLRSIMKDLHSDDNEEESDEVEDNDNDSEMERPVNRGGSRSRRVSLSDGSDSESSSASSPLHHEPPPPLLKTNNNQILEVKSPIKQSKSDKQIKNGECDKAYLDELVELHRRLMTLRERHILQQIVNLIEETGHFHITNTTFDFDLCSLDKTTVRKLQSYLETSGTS
HNF4A DNA FP = change in binding of human HNF4 alpha to DNA | HNF4a-FITC DNA binding, fluorescence polarization, 1 h | activity change, % at 10 µM | 360,000 tested, 0.3% active; in the data active means activity change above about 30%, passing the limit was not always enough;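 further: controls were the assay level and a saturating level of protein; the project sought stronger binding though the title names inhibitors; some compounds called inactive have numbers as strong as hits; positive values seem to mean higher polarization but the record does not say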
Vif A3G = inhibitors of Vif binding to APOBEC3G peptide, primary screen, biochemical, TR-FRET, GST-Vif 1-94, biotin-A3G peptide, dose response retest (AID 1117319) | TR-FRET GST-Vif / biotin-A3G peptide binding; higher % means a stronger effect; test concentration not given here; strong numbers were not always called active | inhibition, %, or IC50 in µM where a hit was titrated | 260,000 tested, 0.57% active;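 active means above the screen mean plus three standard deviations and confirmed in dose response; inconclusive means results disagree or hit not tested in dose response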;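 further: Vif residues 1-94 fused to GST binding biotinylated APOBEC3G peptide 110-148; 0% = full assay without inhibitor and 100% = GST in place of GST-Vif; retest series ran down from 100 µM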
rRNA inh HTS = selective bacterial rRNA inhibition in E. coli; E. coli WT GFP vs humanized-ribosome RFP mutants, fluorescence, 24 h; stronger effect = lower value; DMSO median 0, no signal -100; GFP signal change (wild-type ribosome), % (test concentration not listed); 350,000 tested, 1.6% active; AID 720706;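 active means significant combined selectivity score with lowered wild-type GFP, culture density cut under 30%, mutant RFP and density less affected; inactive means any of these conditions unmet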; further: one replicate is shown; some compounds called inactive have numbers as strong as hits
ALR inh = human ALR oxidase inhibition via reduced H2O2; P55789; purified ALR, DTT oxidation, H2O2 HRP-luminol luminescence; inhibition, % (no concentration beside the values); 290,000 tested, 3.8% active;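 active means mean and each replicate at 75% or more; inconclusive means only one of the two met; inactive means neither met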;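 further: stock transfer was 7.5 nL into about 7.5 µL; 0% = neutral wells and 100% = wells with inactivated enzyme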
Target sequence (P55789 whole entry, looked up): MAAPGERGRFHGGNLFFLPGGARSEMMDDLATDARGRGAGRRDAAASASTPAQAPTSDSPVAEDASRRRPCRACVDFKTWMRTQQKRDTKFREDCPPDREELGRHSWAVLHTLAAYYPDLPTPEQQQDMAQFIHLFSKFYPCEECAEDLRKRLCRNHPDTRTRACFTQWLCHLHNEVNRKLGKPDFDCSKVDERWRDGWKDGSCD
FGF22 binding = binders of recombinant human FGF22 by thermal shift; Q9HCT0; SYPRO orange fluorescence; percent of sucrose octasulfate shift, DMSO zero; calls only at 9.99 µM; 340,000 tested, 1.5% active; AID 651658;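 active means melting point raised past a set limit in the mean and every replicate; inconclusive means no clear call; three in four hits are not shown here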
Target sequence (Q9HCT0 whole entry, looked up): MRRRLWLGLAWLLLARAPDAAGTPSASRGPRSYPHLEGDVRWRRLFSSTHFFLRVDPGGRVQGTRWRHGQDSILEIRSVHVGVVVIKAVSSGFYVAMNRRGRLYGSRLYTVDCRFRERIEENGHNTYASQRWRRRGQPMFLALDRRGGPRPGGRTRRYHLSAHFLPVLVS
rRNA inh HTS OD600 = second read-out of rRNA inh HTS, no call of its own (marks repeat the call); OD600 change, %; measured here: OD600 growth;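 optical density of the mix in the first replicate; 0 = DMSO median and -100 = no signal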
rRNA inh HTS RFP = further read-out of rRNA inh HTS, marked with its call; RFP signal change, %; measured here: RFP humanized mutant strains;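 first replicate; 0 = DMSO median and -100 = no signal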
An asterisk follows results filed as active; i = inactive; ? = inconclusive; / = no result given; & = joins results of further samples.

SMILES	E coli growth	MLL AF4-AF9 inh	HNF4A DNA FP	Vif A3G	rRNA inh HTS	rRNA inh HTS OD600	rRNA inh HTS RFP	ALR inh	FGF22 binding
CC(c1ccco1)N(C(=O)c1cccc(S(=O)(=O)N(C)C)c1)c1ccccn1 (centres undefined)	0.68	1.9	1.8	3%	-25	-38	-6.1	-1	i
Cc1c(C(=O)N(C)CCc2cnn(C)c2)oc2c(F)cccc12	0.69	0.8	-0.6	/	-3	-1	-0.7	-7	i
Cc1c(C)n(C(=O)CSc2nncn2C)c2ccccc12	0.69	/	2.9	5%	/	/	/	64	/
CCCn1c(N2CCN(C(=O)NCc3ccccc3)CC2)nc2ccccc21	0.67	-3.5	-1.7	5%	-8	-7	-4.9	2	i
Clc1ccc2nnnc(-c3ccccc3)c2c1	/	5.4	1.0	1%	-4	-5	-6.6	5	/
COc1ccc2c3c([nH]c2c1)[C@H](CO)N(CC1CC1)CC31CN(C(=O)c2ccccc2)C1	/	-0.7	/	/	-6	-5	0.8	/	i
COc1ccc(C(=O)COC(=O)/C=C/c2ccc(S(=O)(=O)Nc3cccc(S(N)(=O)=O)c3)cc2)cc1	/	0.1	1.6	-1%	-17	-9	-2.6	4	i
C[C@@H]1CCCCO[C@@H](CN(C)S(=O)(=O)c2cn(C)cn2)[C@@H](C)CN([C@@H](C)CO)C(=O)c2cc(NC(=O)NC3CCCCC3)ccc2O1	/	0.0	/	/	-2	-7	-0.1	/	i
O=C(O)/C=C/C(=O)Nc1ccc(O)cc1	0.65	-1.0	2.9	/	29	1	3.6	98*	i
COc1ccc(CNC(=O)CC(C)S(=O)(=O)c2ccc3c(c2)NC(=O)CO3)cc1 (centres undefined)	0.67	-9.6	1.6	/	0	-2	-0.3	-3	i

Entries of single compounds from above:
Shown for Clc1ccc2nnnc(-c3ccccc3)c2c1 = E coli growth = /; MLL AF4-AF9 inh = 5.4; HNF4A DNA FP = 1.0; Vif A3G = 1%; rRNA inh HTS = -4; rRNA inh HTS OD600 = -5; rRNA inh HTS RFP = -6.6; ALR inh = 5; FGF22 binding = /
Shown for CC(c1ccco1)N(C(=O)c1cccc(S(=O)(=O)N(C)C)c1)c1ccccn1 (centres undefined) = E coli growth = 0.68; MLL AF4-AF9 inh = 1.9; HNF4A DNA FP = 1.8; Vif A3G = 3%; rRNA inh HTS = -25; rRNA inh HTS OD600 = -38; rRNA inh HTS RFP = -6.1; ALR inh = -1; FGF22 binding = i

Carrying on.
SMILES	E coli growth	MLL AF4-AF9 inh	HNF4A DNA FP	Vif A3G	rRNA inh HTS	rRNA inh HTS OD600	rRNA inh HTS RFP	ALR inh	FGF22 binding
C[C@@H]1CN([C@@H](C)CO)S(=O)(=O)c2ccc(Br)cc2O[C@H]1CN(C)C(=O)c1ccc2c(c1)OCO2	/	3.0&0.3	2.1	-2%	-5&-3	-17&-3	0.0&-0.8	/	i
CCOC(=O)C1CCN(C(=O)C2CCCN(S(=O)(=O)c3ccc(OCC)c(Cl)c3)C2)CC1 (centres undefined)	0.68	-17	1.8	-2%	0	-21	1.5	-17	i
O=C(Nc1ccc(F)cc1)C(c1ccnc2ccccc12)N1CCN(CC(=O)N2CCCC2)CC1 (centres undefined)	/	0.5	0.6	/	6	0	0.4	/	i
CCc1ccc(NC(=O)CSc2nc3cc(C(=O)OC)ccc3c(=O)n2Cc2ccco2)cc1	0.72	/	-7.5	1%	/	/	/	-32	/
COc1ccc(OC(=O)c2cn(C)nc2C(F)(F)F)cc1	0.77	/	2.8	-1%	/	/	/	0	/
CCN(CC)CCN(Cc1cc2cc(C)ccc2[nH]c1=O)C(=S)Nc1ccccc1	0.71	2.8	6.7	-3%	-9	-4	4.9	6	i
COc1ccc(NC(=S)N2CCC(Cc3ccccc3)CC2)cc1	0.69	-4.7	-0.4	5%	0	-26	0.9	-9	i
COc1ccccc1N1CCN(C(=O)c2cc(-c3ccccc3)on2)CC1	0.68	6.4	3.7	/	-4	-24	-0.9	/	i
COC(=O)CC/C(C)=N\Nc1ccc([N+](=O)[O-])cc1[N+](=O)[O-]	/	/	1.7	1%	/	/	/	-7	/
COc1ccccc1CN(C(=O)Cc1cccs1)C(C(=O)NC1CCCC1)c1ccncc1 (centres undefined)	0.63	/	1.2	3%	/	/	/	2	/
O=C(CSc1cccc(C(F)(F)F)c1)N1CCN(S(=O)(=O)c2ccccc2)CC1	0.72	/	-1.7	3%	/	/	/	-24	/
COC(=O)c1ccc(Sc2ccccc2NS(=O)(=O)c2ccc(NC(C)=O)cc2)nc1	0.71	/	-2.2	0%	/	/	/	-5	/
CCCN(C)C[C@@H]1OCCCC[C@@H](C)Oc2ccc(NS(C)(=O)=O)cc2C(=O)N([C@H](C)CO)C[C@H]1C	/	-4.7	/	/	1	3	-1.8	/	i
Cc1cc2c(c(=O)n1C)C(Cc1ccccc1)C(C#N)=C(N)O2 (centres undefined)	0.68	/	0.6	3%	/	/	/	-3	/
Cc1nn(-c2ccc(F)cc2)c(Cl)c1C(=O)N(C)CC(=O)Nc1cccc(F)c1	0.7	-0.8	5.2	-5%	-9	-8	0.1	8	i
COc1cc2cnc(-c3ccccc3)c(-c3cccc(C(F)(F)F)c3)c2cc1OC	/	4.1	-0.3	/	4	-3	9.9	-8	i
C[C@H]1CN([C@@H](C)CO)C(=O)Cc2cc(NS(=O)(=O)c3cn(C)cn3)ccc2O[C@@H]1CN(C)C(=O)Nc1ccc(C(F)(F)F)cc1	/	3.4	/	/	2	-2	-1.7	/	i
CC(=O)N1CCc2cc(S(=O)(=O)Nc3ccc(C)cc3C)ccc21	0.69	-1.9	2.1	1%	4	4	-2.9	-17	i
Cc1ccc(NC(=O)N2CCCC2C(=O)NCc2ccc3c(c2)OCO3)cc1 (centres undefined)	0.7	0.4	2.2	-10%	5	10	3.9	2	i
CCC(C)Oc1nc2ccccc2nc1NS(=O)(=O)c1ccccc1 (centres undefined)	0.71	/	-2.6	-2%	/	/	/	-4	/
Cc1ccc(S(=O)(=O)N(C)C[C@@H]2Oc3c(NC(=O)NC(C)C)cccc3C(=O)N([C@H](C)CO)C[C@@H]2C)cc1	/	-1.9	/	/	-6	-12	-0.2	/	i
CCOP(=O)(OCC)c1ccccc1OCP(C)(=O)COc1ccccc1P(=O)(OCC)OCC	0.69	-1.6	1.8	-11%	1	6	0.6	-27	i
Cc1ccc2cc(C#N)c(N3CCCN(C(=O)C4CCCO4)CC3)nc2c1C (centres undefined)	0.68	/	7.5	-10%	/	/	/	-11	/
COc1ccccc1Nc1nc(C)cc(C)c1C(N)=O	0.69	/	1.4	17%	/	/	/	13	/
O=C(COC(=O)CSc1ccc2ccccc2c1)NC1CC1	0.73	/	1.2	/	/	/	/	27	/
COc1ccc(C)cc1S(=O)(=O)n1c([N+](=O)[O-])cnc1C	0.71	1.1	0.6	-1%	10	16	-0.6	-10	i
O=C(c1c(F)cccc1F)N1CCN(c2ncc(Br)cn2)CC1	0.61	-0.3	-0.1	-1%	1	-4	0.5	-4	i
C/C=C/c1ccc([C@@H]2[C@@H](CO)N(C(=O)C3CC3)[C@H]2CN(C)C(=O)CC)cc1	/	1.6	/	/	0	1	1.4	/	i
CCOC(=O)C1=C(N)OC2=C(C(=O)CCC2)C1c1sccc1C (centres undefined)	0.73	-2.6	2.5	-5%	3	3	-0.1	2	i
CCN(CCCNC(=O)C1CCN(S(=O)(=O)c2c(C)[nH]c(=O)[nH]c2=O)CC1)c1cccc(C)c1	0.75	/	-0.1	1%	/	/	/	/	/
CCNC(=O)c1ccc(NC(=O)CC2SC(N3CCCCC3)=NC2=O)cc1 (centres undefined)	0.67	-1.1	-2.2	9%	6	10	-1.6	0	i
CS(=O)(=O)Nc1ccc2c(c1)[C@H]1C[C@H](CC(=O)NCc3ccc(Oc4ccccc4)cc3)O[C@H](CO)[C@H]1O2	/	0.9	/	/	-7	-22	-4.6	/	i
O=C(/C=C/c1cccc([N+](=O)[O-])c1)N1CCOCC1	0.68	/	-2.7	/	/	/	/	-5	/
CNc1nc(-c2ccccc2)[n+](-c2ccc(C)cc2)s1	0.68	/	0.0	14%	/	/	/	58	/
CCCCc1cc(=O)oc2c(C)c(OCC(=O)N3C[C@H]4C[C@@H](C3)c3cccc(=O)n3C4)ccc12	0.72	-8.5	2.2	/	/	/	/	-6	i
COC(=O)c1ccc(N2CCN(C)CC2)c(NC(=O)c2ccc(Br)o2)c1	0.7	1.0	-1.0	/	-4	-8	-1.8	0	i
CCCCCCNC(=O)CCNS(=O)(=O)c1ccc(C)cc1	0.65	-1.3	-0.6	24%	-10	-13	-4.2	0	i
Cc1cc2nc3n(c2cc1C)CC1CC(C(=O)NCc2ccco2)N(C)C31 (centres undefined)	0.67	-34	2.5	9%	-1	5	-4.5	/	i
CC(C)Cn1c(-c2csc3c2CCCC3)n[nH]c1=S	0.66	-1.0	3.0	4%	-55	-80	-34	0	i
CCN(CC)C(=O)[C@H]1C[C@H](CC(=O)NCc2cccc(C(F)(F)F)c2)C(=O)N2CCc3c([nH]c4cc(CCC(=O)N(C)C)ccc34)[C@]12C	0.7	-3.0	3.3	-2%	-9	-7	2.7	/	i
C=CCN1CN=C(NS(=O)(=O)c2ccc(NC(C)=O)cc2)NC1	0.69	0.8	-0.9	-3%	10	17	-1.1	-5	i
O=C(COC(=O)C1CC2CCCC(C1)C2=O)c1cccc(Br)c1 (centres undefined)	0.67	-0.8	5.1	-2%	/	/	/	/	i
CC(C)c1nc2cc(C(=O)NC(C)c3cnn(C)c3)ccc2o1 (centres undefined)	0.69	-5.8	-1.9	/	7	5	-2.1	-4	i
CCOc1ccc(N2CC(C(=O)Nc3cc(S(=O)(=O)N4CCCCC4)ccc3C)CC2=O)cc1 (centres undefined)	0.69	2.5	1.3	/	9	12	0.7	-4	i
O=C(COc1ccccc1/C=C\c1nc(O)c([N+](=O)[O-])c(=O)[nH]1)Nc1ccccc1	0.68	-1.9	-4.7	12%	-2	3	1.2	/	i
Cc1cccc(NC(=O)c2ccc(S(=O)(=O)N3CCOCC3)cc2)c1C	0.67	-1.7	-3.1	/	3	15	-1.5	-27	i
CCOC(=O)CNC(=O)C(CC(C)C)NC(=O)C1CCCCC1 (centres undefined)	0.72	/	-1.4	4%	/	/	/	/	/
C[C@H]1CN([C@@H](C)CO)C(=O)c2cc(-c3cccc(F)c3)cnc2O[C@@H]1CN(C)C(=O)Nc1ccccc1F	/	-1.8	/	/	-4	1	0.0	/	i
CCOC(=O)C1(C(C)(C)CC)CC(CSc2nc3ccccc3[nH]2)OC1=O (centres undefined)	0.7	/	2.0	?	/	/	/	-8	/
COc1cc(NS(=O)(=O)c2ccc(NC(=O)Cc3ccccc3)cc2)nc(OC)n1	0.66	0.4	0.9	/	-4	6	-2.2	2	i
CCCNC(=O)C1(CC2CC(c3ccccc3)=NO2)CCN(C(=O)Cc2ccc(F)cc2)CC1 (centres undefined)	0.73	-2.3	1.4	/	-15	-11	-5.2	-1	i
CC(=NNC(=O)c1cccs1)c1ccc2c(c1)OCCO2	0.66	1.8	0.7	/	-4	0	-1.8	-3	i

The list is partial; count on the stated rates, not on these rows.
